Menin-MLL FL inh: menin-MLL binding inhibition, fluorescein peptide; Fluorescence polarization, fluorescein-MLL peptide displacement from menin; FP activity change, % at 61.4 µM; 290,000 tested, under 10 active; AID 1766; inconclusive = falling polarisation curve, or a change in total fluorescence; inactive = total fluorescence flat and polarisation flat or rising; no compound was filed as active; the % refers to the polarisation; negative = inhibition;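 note: % of control where 0% means no effect; inhibitors lower the polarisation; unlabelled MLL peptide was the positive control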
gsp antag: gsp mutant antagonism; gsp-mutant cells, cAMP HTRF, 30 min; control for the full effect not named in the record; Potency, µM (titrated, usually from 76.9 µM), inactives show at the top dose activity change, negative = inhibition, most hits filed as inhibitors; 0.4% of 340,000 active; active = falling curve of any shape with a large fitted effect; inconclusive = falling curve, mostly with a smaller effect; inactive = flat or rising curve; cell line not stated here;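 note: intracellular cAMP measured with PDE inhibitor Ro 20-1724 present during compound exposure; potency is the fitted concentration of half-maximal effect; % is set by controls: 0 for no effect and ±100 for the full control effect; nearly all actives have a fitted effect of over 65% in size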
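HTRF cAMP read-out (cAMP-d2 plus anti-cAMP antibody-K in lysis buffer, 30 min RT). Before lysis, cells are exposed to compounds with […] for 30 min at 37C in DPBS containing Ca/Mg, BSA and Tween 20.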
TRPV1 PAM: human TRPV1 potentiation; potentiation, % at 8.33 µM; Q8NER1; AID 540277; 0.02% of 320,000 active; TRPV1-expressing cells, Fluo-8 calcium influx, capsaicin EC20 potentiation; host cell line not named in the record; control for the full effect not named in the record; active means potentiation above 80%; inconclusive means 30% to 80%; inactive means below 30%; note: 0% is about no effect
Target sequence (Q8NER1 whole entry, looked up): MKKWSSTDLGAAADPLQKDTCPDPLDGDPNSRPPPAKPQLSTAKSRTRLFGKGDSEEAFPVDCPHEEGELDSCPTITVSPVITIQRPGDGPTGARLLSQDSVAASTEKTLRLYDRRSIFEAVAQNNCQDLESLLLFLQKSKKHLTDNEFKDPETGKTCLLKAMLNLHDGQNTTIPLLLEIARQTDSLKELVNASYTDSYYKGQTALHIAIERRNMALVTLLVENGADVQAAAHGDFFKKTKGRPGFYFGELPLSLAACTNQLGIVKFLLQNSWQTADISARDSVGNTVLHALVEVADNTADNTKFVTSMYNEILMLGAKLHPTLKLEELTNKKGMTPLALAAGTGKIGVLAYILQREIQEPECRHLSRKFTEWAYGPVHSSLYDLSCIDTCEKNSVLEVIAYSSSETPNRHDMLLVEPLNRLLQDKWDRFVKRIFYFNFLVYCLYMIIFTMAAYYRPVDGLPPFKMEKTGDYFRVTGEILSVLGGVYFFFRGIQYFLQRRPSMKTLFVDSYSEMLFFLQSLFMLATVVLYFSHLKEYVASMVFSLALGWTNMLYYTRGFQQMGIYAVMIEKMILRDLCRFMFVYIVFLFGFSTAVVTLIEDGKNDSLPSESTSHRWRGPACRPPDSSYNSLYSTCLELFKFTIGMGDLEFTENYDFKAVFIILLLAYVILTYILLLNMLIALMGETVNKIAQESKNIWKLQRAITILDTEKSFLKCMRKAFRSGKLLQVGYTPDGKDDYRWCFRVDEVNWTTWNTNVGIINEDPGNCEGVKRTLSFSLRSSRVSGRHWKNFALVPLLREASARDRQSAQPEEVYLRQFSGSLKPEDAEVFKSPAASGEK
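Cells expressing TRPV1 were dye-loaded with Fluo-8 and read kinetically: 10 s baseline, 3 min after compound (agonist portion), then 2 min after EC20 capsaicin (allosteric enhancer portion). Calcium-bound dye fluorescence at 480/520 nm.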
Sfp inh: blocks B. subtilis Sfp PPTase activity; 3.5% of 310,000 active; Potency, µM, for the others: max response, negative = inhibition, usual class: inhibitors; Biochemical Sfp PPTase activity, qHTS; active = well fitted inhibition curve with a large enough effect; inconclusive = small, poorly fitted or top-dose-only effect, or another doubt; inactive = no such curve, though single readings can be large or run the other way;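 note: the enzyme is Sfp with the accession as filed and its product quenches rhodamine fluorescence; potency is the fitted concentration of half-maximal effect; 0% = enzyme reaction without inhibitor and -100% = no enzyme wells; top concentration of the series not given in the record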
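Step 1, compound plus 15 nM Sfp-PPTase, 15 min, room temperature. Step 2, add rhodamine-CoA (5 uM) and BHQ-2-YbbR (12.5 uM). Step 3, read 525/598 nm fluorescence at 0 and 30 min.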
CtBP-E1A inh: inhibitors of CtBP/E1A interaction; activity change, % (no concentration beside the values); AlphaScreen GST-E1A/His-CtBP binding, 1536-well; stronger effect = lower value; control for the full effect not named in the record; AID 651724; 0.49% of 340,000 active; in the data active means activity change below about -65%; inconclusive means about -30% to -65%; inactive means above about -30%; note: % is set by controls: 0 for no effect and ±100 for the full control effect; compound concentration not given in the record
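Homogeneous bead-based format: GST-tagged E1A captured on glutathione donor beads, His-tagged CtBP on nickel acceptor beads; compounds precede bead addition by 2 h at 37 °C.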
ClpP mod: qHTS Assay for Activators of ClpP; Potency, µM (highest dose often 57.5 µM), for the others: top-dose activity change, negative = active; 1.9% of 340,000 active; AID 651965, 2013; purified B. subtilis ClpP, FRET peptide cleavage, 20 min; ATP-dependent Clp protease proteolytic subunit (Bacillus subtilis (strain 168)), P80244; active = well fitted falling curve with a large enough effect; inconclusive = small, poorly fitted or top-dose-only effect; inactive = no such curve, though single readings can be large or run the other way; note: potency is the fitted concentration of half-maximal effect; the source files actives as falling curves though it sought activators and does not explain the sign; nearly all actives have a fitted effect of over 65% in size; many hits overshoot -100%
Target sequence (P80244 whole entry, looked up): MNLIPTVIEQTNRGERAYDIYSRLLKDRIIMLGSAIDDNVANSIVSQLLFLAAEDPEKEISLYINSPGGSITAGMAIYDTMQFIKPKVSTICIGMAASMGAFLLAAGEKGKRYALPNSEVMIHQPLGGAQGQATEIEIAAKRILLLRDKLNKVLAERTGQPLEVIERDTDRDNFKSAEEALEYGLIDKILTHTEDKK
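FRET quenching reversal measured ClpP activation: 10 microg/mL B. subtilis ClpP at pH 8 with the FRET-FV decapeptide, read at 430 nm after 320 nm excitation. The 20-min minus 0-min signal was scaled between DMSO/no-enzyme wells and ADEP (5.8 microM final).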
gsp agonist: gsp mutant agonism; Potency, µM (top dose mostly 76.9 µM), inactives show top-dose activation (cAMP increase), usual class: activators; gsp mutant cells, cAMP HTRF, 30 min; control for the full effect not named in the record; 0.13% of 340,000 active; active = well fitted activation curve with a large enough effect; inconclusive = small, poorly fitted or top-dose-only effect, or another doubt; inactive = no such curve, though single readings can be large or run the other way; cell line not stated here;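 note: phosphodiesterase inhibitor Ro 20-1724 added with compounds to block cAMP breakdown; potency is the fitted concentration of half-maximal effect; nearly all actives have a fitted effect of over 60% in size; about a fifth of the inactives were tested at one dose only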
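Cells in DMEM/10% FBS with G418 were pretreated with compounds in DMSO plus […] (300 uM stock) for 30 min at 37C. cAMP was measured by HTRF (cAMP-d2 plus anti-cAMP antibody-K) after 30 min at room temperature.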
Starred values were filed as active, the others as inactive; ? = inconclusive; nt = not tested or not shown; [ ] = dose if it differs, or a comment. Rows were taken by chance. Share with any hit: about 5.3%.

SMILES	Menin-MLL FL inh	gsp antag	TRPV1 PAM	Sfp inh	CtBP-E1A inh	ClpP mod	gsp agonist
Cc1ccc(S(=O)(=O)N(C)C[C@H]2Oc3ncc(-c4ccccc4)cc3C(=O)N([C@@H](C)CO)C[C@@H]2C)cc1	nt	nt	nt	nt	-2	-1.8%	?
COc1ccc(OC)c(NC(=O)c2cccc(NC(=O)c3ccccc3C(=O)O)c2)c1	5.6	-9%	-14	11%	-6	nt	-24%
CCS(=O)(=O)C1=NSC2=NC(=O)/C(=C\c3ccc(OC(=O)c4ccco4)c(OC)c3)C(=N)N21	nt	9%	-5	-4%	-10	-4.6%	?
CN(CC(=O)NCc1ccccc1)CC(=O)Nc1ccc(Cl)c(C(F)(F)F)c1	nt	?	-13	nt	1	1.0%	20%
Nc1nonc1C(=O)NCCNCc1ccccc1OCc1ccccc1F	1.3	8%	-18	2%	-1	-0.7%	-4%
NNC(=O)CN1C(c2ccc(Br)cc2)=Nc2ccc(Br)cc2C1c1ccccc1 (centres undefined)	1.1	3%	6	20%	0	-0.3%	-5%[15.4 µM]
Cc1ccsc1/C=N/n1c(-c2ccccc2)n[nH]c1=S	2.9	-8%	14	-14%	5	-2.1%	-19%
CCCCc1ccc(Nc2ncccc2C#N)cc1	2.1	0%	-13	3%	22	-26%	22%
NC(=NCCc1ccccc1)NS(=O)(=O)c1ccccc1F	-1.2	0%	-4	15%	nt	1.5%	-3%
CS(=O)(=O)N(Cc1ccccc1)c1ccccc1C(=O)N1CCN(c2ccccc2)CC1	2.2	-8%	-6	-5%	0	0.0%	-11%
Cc1sc2ncnc(N3CCC(C(=O)N(C)CC(=O)Nc4cccc(F)c4)CC3)c2c1C	nt	nt	nt	nt	-17	-1.1%	-2%
O=C(CCCc1ccccc1)Nc1ccccc1[N+](=O)[O-]	-7.4	4%	-18	16%	5	-0.4%	1%[15.4 µM]
CC(=O)N1N=C(c2ccc(NS(C)(=O)=O)cc2)CC1c1ccc2nccnc2c1 (centres undefined)	-1.4	-10%	1	14%	5	nt	?
O=C(C(O)c1ccccc1)N1N=C(c2ccccc2)CC1(O)C(F)(F)F (centres undefined)	1.0	-2%	15	12%	0	nt	-25%
COc1cc2c(cc1OC)CN(C(=O)CCc1c[nH]c3ccccc13)[C@H](C(=O)O)C2	7.4	-2%	0	11%	nt	-7.1%	-2%
O=C1c2ccccc2C(=O)N1CCCc1nc(-c2cccnc2)no1	3.2	10%	-7	-6%	0	1.7%	?
O=c1[nH]c(Nc2ccccn2)cc2ccccc12	nt	-17%	nt	nt	4	3.5%	nt
CC(=O)NCCc1nc2ccccc2n1CCc1ccccc1	-0.8	4%	-20	-13%	0	nt	-33%[inhibitor]
Cc1c(C#N)c(N=CN(C)C)c(C(=O)c2ccc(Br)cc2)n1-c1ccc(Cl)cc1	-2.1	10%	-16	4%	-9	-1.3%	?
CC1CCCN(C(=O)COC(=O)c2ccc3[nH]c4c(c3c2)CCCC4)C1 (centres undefined)	nt	2%	-1	nt	-17	1.4%	-37%[inhibitor]
Cc1cc(C)cc(NC(=O)COC(=O)C2CC3C=CC2C3)c1 (centres undefined)	nt	nt	nt	nt	5	0.5%	-35%[inhibitor]
CC(c1ccccc1)N1CCC(CNC(=S)Nc2cccc(Cl)c2)C1 (centres undefined)	0.3	7%	-12	4%	-10	nt	28µM*
Cc1nn2c3ccccc3nc2c2ccccc12	1.3	2%	-1	?	-24	-8.1%	-22%
O=C(Nc1ccc(Oc2cccc(C(F)(F)F)c2)nc1)c1ccco1	3.2	13%	-26	-3%	14	-0.6%	1%[15.4 µM]
Cc1ccc(C)c(SCC(=O)Nc2cccc(S(=O)(=O)N3CCOCC3)c2)c1	nt	3%	-2	nt	0	-1.7%	49%[15.4 µM]
Cc1ccc(S(=O)(=O)CCC(=O)OCC(=O)NC2CCS(=O)(=O)C2)cc1 (centres undefined)	nt	12%	8	nt	2	-2.6%	9%[15.4 µM]
Cc1c(Cl)cccc1NC(=O)c1cc(-c2ccccc2O)n[nH]1	2.2	?	?	-2%	-11	-3.2%	6%
CCOc1ccc(OCC)c(NC(=O)C(NS(=O)(=O)c2ccc3c(c2)oc(=O)n3C)C(C)C)c1 (centres undefined)	-1.9	8%	-4	15%	3	1.2%	3%
COc1cc(CC(CC(=O)c2ccc3c(c2)OCO3)C(=O)O)cc(OC)c1OC (centres undefined)	nt	-6%	nt	nt	-5	nt	4%
CC1(C)NC(=O)N(CC(=O)N2CCN(S(=O)(=O)c3ccccc3F)CC2)C1=O	nt	-3%	1	nt	nt	-1.4%	-15%
COc1ccc(CCC(=O)O)c(C(CC(=O)O)C(=O)O)c1OS(=O)(=O)c1ccc(C)cc1 (centres undefined)	nt	nt	nt	nt	2	2.1%	-12%
Cc1c(NC(=O)/C(C#N)=C/c2cccs2)c(=O)n(-c2ccccc2)n1C	3.6	-4%	3	4%	nt	1.0%	-13%
O=C(NC(Cc1ccccc1)C(=O)O)/C(=C\c1ccc(Cl)cc1)NC(=O)c1ccco1 (centres undefined)	4.4	6%	13	18%	1	?	7%
COC(=O)C1=C(C(=O)OC)[C@@H]2N(C)c3ccc(OC)cc3[C@@]23C[C@@H](C(=O)OC)N(C(=O)c2cc(C)oc2C)C3=N1	0.4[11.7 µM]	-9%	nt	3%	-30	0.0%	-57%[inhibitor]
CCOc1ccc(C2CC(c3ccc(F)cc3)n3ncnc3N2)cc1 (centres undefined)	-0.2	-1%	9	7%	-2	-26%	-3%
Cc1cc(C)c2c(n1)nn1c(N3CCN(c4ccccc4C)CC3)cc(C)nc21	nt	-9%	nt	nt	5	?	0%
COc1ccc(S(=O)(=O)Nc2ccc3c(c2)C(=O)N([C@H](C)CO)C[C@H](C)[C@@H](CN(C)S(=O)(=O)c2ccc(F)cc2)O3)cc1	nt	-23%	nt	nt	2	0.5%	6%
O=C(O)CCc1ccc(-c2cccs2)n1Cc1ccco1	0.3	-16%	7	25µM*	2	?	?
CC(C#N)(NC(=O)CN1CCN(S(=O)(=O)c2ccc(Br)cc2Cl)CC1)C1CC1 (centres undefined)	nt	-8%	7	nt	4	0.8%	3%
CC1(C(=O)N(CC(=O)NC2CCCC2)Cc2ccc(Cl)cc2)CC(=O)N=C2C=CC=CN21 (centres undefined)	nt	3%	1	21%	6	nt	5%[15.4 µM]
CCOC(=O)/C=C1\SCC(=O)N1CC(=O)Nc1ccc(C(C)C)cc1	2.6	-2%	3	4%	3	-0.5%	-18%
Cc1ccc(NC(=O)Nc2cnccn2)cc1	-1.0	12%	-33	10%	0	-6.9%	5%
COc1ccc(CN(C)C(=O)[C@H](Cc2ccccc2)NC(=O)c2ccco2)c(OC)c1	nt	-2%	-4	nt	-6	-1.3%	8%
COc1cc(/C=N/NC(=O)CCN2CCN(c3ccccc3)CC2)cc(OC)c1OC	0.7	8%	2	5%	-80*	nt	-13%[15.4 µM]
O=C(NCc1cccnc1)c1cccc2c1C(=O)N(Cc1cccnc1)C2	-1.6	-3%	?	19%	5	-2.3%	?
Cc1ccc(/C=C/C(=O)OCC(=O)Nc2ccccc2Sc2ccccc2)cc1	4.6	7%	4	-11%	-2	-2.8%	9%
O=C1COc2ccc(C(=O)COC(=O)c3ccccc3Cl)cc2N1	nt	1%	nt	nt	-7	-2.9%	0%
Cc1ccc(NC(=S)Nc2ccc(Cl)c(Cl)c2)c(OC(F)F)c1	4.2	?	-2	14%	-14	3.8%	4%
Brc1ccc(-c2cn3ccccc3n2)cc1	2.7	2%	-17	2%	2	nt	-16%
COCC1CCN(C(=O)C2CCC(=O)N(CCc3ccc(Cl)cc3)C2)CC1 (centres undefined)	-0.4	7%	-5	8%	0	0.4%	?
O=C1Nc2cc(C(F)(F)F)ccc2N2CCCCC12 (centres undefined)	-9.7	14%	6	6%	-1	-1.1%	-1%[15.4 µM]
O=c1[nH]c2ccccc2nc1Cc1ccccc1	2.3	14%	6	-6%	-1	?	-14%
Cc1c(C(=O)N2CCCCCC2)c(S(=O)(=O)Nc2ccccc2F)c(C)n1C	-1.2	7%	3	12%	-1	1.4%	6%
CC(=O)c1ccc(NC(=O)C(C)n2c3ccccc3c3nc(=O)cc(C)n32)cc1 (centres undefined)	2.0	9%	16	-11%	nt	-2.9%	-26%
CC1CCCCN1C(=O)C(=O)c1cn(CC(=O)N2CCCC2)c2ccccc12 (centres undefined)	nt	-6%	2	5%	-19	-4.5%	12%
CCN(CC)C(=O)CSc1nnc(C2CCCCC2)o1	-1.2	-1%	-6	-5%	0	-2.7%	19%
C(=N\Nc1nc2ccccc2[nH]1)/c1ccccn1	-0.1	2%	-11	23%	nt	1.3%	-11%
COc1cc(S(=O)(=O)NC2CCCC2)c(OC)cc1C	nt	2%	7	14%	4	2.6%	?
O=C1CC(N2CCN(S(=O)(=O)c3ccc([N+](=O)[O-])cc3)CC2)C(=O)N1c1ccccc1F (centres undefined)	nt	17%	-11	nt	0	1.0%	-17%
O=C(c1ccc2nccnc2c1)N1CCN(c2ccccc2)CC1	nt	11%	4	6%	5	0.6%	?

Going on with the list.
SMILES	Menin-MLL FL inh	gsp antag	TRPV1 PAM	Sfp inh	CtBP-E1A inh	ClpP mod	gsp agonist
CC(C)c1cc(-c2cc(C(=O)NCc3ccccc3)on2)nc(NC2CCCC2)n1	5.6	-12%	0	28%	12	?	-44%[inhibitor]
CN1CCN(S(=O)(=O)c2ccc(NCc3ccc4c(c3)OCO4)nc2)CC1	-0.8	4%	7	15%	6	nt	-4%[15.4 µM]
CC1=Nc2nc(N3CCCCC3)c(C#N)c3c4c(nc(c23)N1)N(c1ccc(C(C)C)cc1)C(=O)C4	13	2%	4	?	-17	?	3%
Cn1ccnc1CN1CCCCC1C(=O)Nc1ccc(Oc2cccnc2)cc1 (centres undefined)	-1.6	32%[activator]	11	-25%	1	1.6%	19%
O=C(Nc1ccc(Cl)cc1)[C@@H]1[C@@H]2C(=O)N(c3ccc(Cl)cc3)C(=O)[C@@H]2[C@H]2C=CC=NN21	1.8	-22%	22	45µM*	-8	3.2%	9%
